MARV entry inh: blocks Marburg virus binding to or entry into cells | actives 1.8% (n = 300,000) | Marburg virus pseudotyped entry inhibition, cell reporter; control for the full effect not named in the record; about a third of the inactives were read at about 46 µM | AID 540276 | Potency, µM (series often up to 37.8 µM), for inactives: at the highest dose activity change, negative = inhibition, most hits filed as inhibitors; active = well fitted inhibition curve with a large enough effect; inconclusive = small, poorly fitted or top-dose-only effect, or effect the other way; inactive = flat fitted curve, though single readings scatter; tested in HEK293 cells; about a fifth of its hits are not listed in these tables; also: luciferase read-out
LASV entry inh: Lassa virus entry inhibition; Lassa virus pseudotype entry inhibition, cell reporter; control for the full effect not named in the record; Potency, µM (top dose mostly 37.9 µM), inactives show at the top dose activity change, negative = inhibition, usual class: inhibitors; actives 1.2% (n = 300,000); AID 540256; active means well fitted inhibition curve with a large enough effect; inconclusive means small, poorly fitted or top-dose-only effect, or effect the other way; inactive means flat fitted curve, though single readings scatter; tested in HEK293 cells; also: nearly all actives have a fitted effect of over 50% in size; luciferase read-out
* marks the source's active call; other numbers are inactive results; ? = inconclusive; · = not tested or not shown; & = joins results of further samples; [ ] = another dose, or the depositor's remark. % is scaled to controls: 0 for no effect and ±100 for the full control effect; potency is read from the fitted curve at half-maximal effect. Only part of the results is shown, so the mix of outcomes need not match the whole.

SMILES	MARV entry inh	LASV entry inh
CCn1c(-c2nonc2N)nc2cnc(Oc3cccc(NC(=O)c4ccc(N(C)C)cc4)c3)cc21	·	?
O=S1(=O)c2ccc(Br)cc2OC[C@H](c2ccccc2)N1Cc1ccccc1	·	?
O=C(c1cccs1)N1C[C@@H](O)[C@@H](n2cc(C3CC3)nn2)C[C@@H]1c1ccc(Cl)cc1	·	?
N#Cc1ccc2c(-c3ccnc(NC4CC4)n3)c(-c3ccc(F)cc3)nn2c1	·	?
NC(=O)c1cc(-c2ccc(F)cc2)cc(-c2ccncc2)c1N	·	10%
CC(=O)Nc1cccc(C#Cc2cncnc2Nc2ccc(OCc3cccc(F)c3)c(Cl)c2)n1	·	?
CCOC(=O)[C@@H]1CSCCS(=O)(=O)N1C(=O)[C@H](CC(C)C)NC(=O)OC(C)(C)C	·	?
CNC(=O)c1sc(-n2cnc3cc(OC)c(OC)cc32)cc1OCc1ccccc1C(F)(F)F	·	?
COc1cc(NS(=O)(=O)c2ccc3c(c2)CC(C)N3C(=O)C2CCC2)cc(OC)c1OC (stereo not given)	·	?
CCN1CCC(CC(=O)Nc2n[nH]c3nnc(-c4cccc(F)c4F)cc23)CC1	·	?
C[C@H]1[C@@H](c2ccccc2)Oc2ccc(Cl)cc2S(=O)(=O)N1Cc1cccc(Cl)c1	·	1%[46.1 µM]
NS(=O)(=O)c1ccc(N=Nc2c(O)[nH]c3ccc(Cl)cc23)cc1	·	2.8µM*
CC(=O)NCc1cccc(C#Cc2cncnc2Nc2ccc(OCc3cccc(F)c3)c(Cl)c2)c1	·	?
CCC[C@H]1CN(c2ccc(OC)cc2)C(=O)[C@H]1CC(=O)Nc1ccccc1	·	?
C[C@H]1COc2cc(NCCCN3CCOCC3)ccc2S(=O)(=O)N1	·	6%[46.1 µM]
CCS(=O)(=O)c1ccc(OC)c(Nc2ncc(-c3cccc(-c4ccccc4F)c3)o2)c1	·	?
C[C@@H]1COc2cc(Br)ccc2S(=O)(=O)N1	·	1%[46.1 µM]
NS(=O)(=O)c1ccc(N=Nc2c(=O)[nH]c3ccc4[nH]cccc4c23)cc1	·	0.63µM*
CCCCCCN1C[C@H](n2cc(C3CC3)nn2)[C@@H](O)C[C@H]1c1ccc(OC)cc1	·	?
C=CC1CC2C=CCOP(=S)(O1)O2 (stereo not given)	·	?
CCCCCC(=O)N1C[C@H](O)[C@@H](n2cc(C3CC3)nn2)C[C@H]1c1ccc(C)cc1	·	?
C=CCN1C(=O)CC[C@@]23C1=NC(C(=O)OC)=C(C(=O)OC)[C@@H]2N(CC=C)c1ccccc13	-3%[14.2 µM]	·
CCN1C(=O)[C@@H]2[C@H]3[C@H](O)[C@H](O)CC(=NO[C@@H](C)c4cc(-c5c(C)cc(C)cc5C)no4)[C@@H]3CC[C@H]2C1=O	-13%[14.2 µM]	·
COC1=C[C@H](C(=O)NC2CCN(Cc3ccccc3)CC2)[C@H](C)[C@@H](c2ccccc2)CC1=O	9%[14.2 µM]	·
COc1cccc([C@H]2Oc3ccc(OC)cc3C(=NO[C@H](C)c3cn([C@H](CO)Cc4ccccc4)nn3)[C@H]2O)c1	?	·
CCN1C(=NCCCCO)NC(c2cccc(C(F)(F)F)c2)C(C(=O)OC)=C1C (stereo not given)	-19%[14.2 µM]	·
C=CC[C@@H]1C=C[C@@H](ON=C2[C@H]3CCn4c(=O)n(-c5ccccc5)c(=O)n4[C@@H]3[C@H](O)[C@@H]3O[C@H]23)[C@@H](CO)O1	-22%[14.2 µM]	·
COC(=O)CC=C1c2ccc3c(c2[C@@H](OC)[C@@H]1C)OCO3	?	·
Ic1ccccc1CN[C@@H]1C2CCN(CC2)[C@H]1C(c1ccccc1)c1ccccc1	4.6µM*	·
CC(C)=CCC/C(C)=C/CO/N=C1/C[C@@H](O)[C@@H](O)[C@@H]2[C@@H]3C(=O)N(c4cccc(Oc5ccccc5)c4)C(=O)[C@H]3CC[C@@H]12	26%[14.2 µM]	·
CCCCCC(=O)N1C[C@@H](n2cc(-c3ccc(F)cc3)nn2)[C@H](O)C[C@H]1c1ccccc1	?	·
COC(=O)N[C@@H](c1ccccc1)C(C(=O)OC)C(=O)OC	?	·
CN1CCc2c(cc(O)c(O)c2Cl)[C@H](c2cccc(Cl)c2)C1	?	·
CC(=O)OC[C@H]1O[C@H](CCO/N=C(\C)CCC(=O)OC[C@H]2O[C@H](C#Cc3ccccc3)C=C[C@@H]2Oc2ccc(C)cc2)C=C[C@@H]1OC(C)=O	21%[14.2 µM]	·
COc1cccc([C@H]2Oc3ccc(OC)cc3C(=NOC[C@@H](C)[C@H](OCc3ccccc3)C(C)C)[C@H]2O)c1	10%[14.2 µM]	·
COc1ccc([C@]23Cc4c(ccc5ccccc45)[C@H](O2)c2c(cc(-c4ccccc4)oc2=O)O3)cc1	40%[14.2 µM]	·
CCCCC[C@]12Cc3cc(OC)c(OC)cc3[C@H](O1)c1c(cc(C)n(-c3ccccc3)c1=O)O2	31%&-15%[14.2 µM]	·
CCN1C(=NCCc2cccnc2)NC(CCc2ccccc2)C(C(=O)OC)=C1C (stereo not given)	38%[14.2 µM]	·
CC=CCCN1C=C(C(=O)OCC)C(c2ccccc2)NC1=O (stereo not given)	41%[14.2 µM]	·
O=C1OCCC=C1C(O)CCc1ccccc1 (stereo not given)	22%[14.2 µM]	·
CC(C)COc1nc2ccccc2nc1[C@H](C#N)C(=O)NC1CCCCC1	-1%	·
C=CCN1c2ccccc2[C@]23CCC(=O)N(CC(=O)OC)C2=NC(C(=O)OC)=C(C(=O)OC)[C@H]13	18%[14.2 µM]	·
C=CCOC(=O)C(C(C)=O)[C@@H](NC(=O)OC)c1cccc(C(F)(F)F)c1 (stereo not given in full)	?	·
Cc1ccccc1CNc1ncnc2c1ncn2[C@@H]1O[C@@H](CO)[C@H](O)[C@@H]1O	18%	·
C=CCN=C1NC(c2cccc(C(F)(F)F)c2)C(C(=O)OC)=C(C)N1CC (stereo not given)	12%[14.2 µM]	·
CCc1cc2c(nc1CC)CCN(CCC(C)=NO[C@@H]1O[C@H](COC(C)=O)[C@@H](OC(C)=O)[C@H](OC(C)=O)[C@@H]1OC(C)=O)C2	-19%[14.2 µM]	·
C[C@@H]1C[C@H]2CC(=O)N3[C@H](CC(=O)N2[C@H]1c1ccccc1)C[C@@H](C)[C@@H]3c1ccccc1	15%[14.2 µM]	·
CCN1C(=O)[C@H]2[C@H]3[C@H](O)[C@H](O)C/C(=N/OC[C@@H](O)COCc4ccco4)[C@@H]3CC[C@@H]2C1=O	34%&34%[14.2 µM]	·
C#CCCCO/N=C1\C[C@@H](O)[C@@H](O)[C@@H]2[C@@H]3C(=O)N(c4cccc(Oc5ccccc5)c4)C(=O)[C@@H]3CC[C@@H]12	?	·
COCOc1ccc(Br)cc1C(=O)C=Cc1ccc2c(c1)OCO2	6%[14.2 µM]	·

The list continues.
SMILES	MARV entry inh	LASV entry inh
CCN(CC)CCN1C(=O)C(=O)/C(=C(/O)c2c(C)[nH]c(C(=O)OC)c2C)[C@@H]1c1ccc(OC)cc1	22%	·
CC(C)OC(=O)C[C@H](NC(=O)OC(C)(C)C)c1ccccc1	-9%	·
O=C(NCC1=C(Cl)CCCC1)C1CNCCC1C(F)(F)F (stereo not given)	-19%	·
c1ccc(C2NCCc3c2[nH]c2ccccc32)cc1 (stereo not given)	23%[14.2 µM]	·
C[C@H]1[C@@H](c2ccccc2)Oc2c(Cl)cccc2S(=O)(=O)N1Cc1ccc(F)cc1	?	·
C/C(CCN1CCc2nc(-c3ccccc3)c(-c3ccccc3)cc2C1)=N\O[C@H](C)CN1CCCCc2nc(C)c(C)cc21	25%[14.2 µM]	·
CCCC[C@]12Cc3cc(OC)c(OC)cc3[C@H](O1)C1=C(O2)C(=O)c2ccccc2C1=O	?	·
COc1cccc([C@H]2/C(=C(\O)c3ccc(C)cc3)C(=O)C(=O)N2Cc2ccco2)c1	21%[46.1 µM]	·
N#Cc1ccc2c(c1)C[C@]1(CCCCN3C(=O)c4ccccc4C3=O)Oc3c(c(=O)oc4ccccc34)[C@H]2O1	?	·
CCCCCC(=O)N1C[C@H](O)[C@@H](n2cc(-c3ccc(F)cc3)nn2)C[C@H]1c1ccc(C)cc1	?	·

Some of these compounds in order of molar mass, low to high.
SMILES	MARV entry inh	LASV entry inh
c1ccc(C2NCCc3c2[nH]c2ccccc32)cc1 (stereo not given)	23%[14.2 µM]	·
CC(C)OC(=O)C[C@H](NC(=O)OC(C)(C)C)c1ccccc1	-9%	·
O=C(NCC1=C(Cl)CCCC1)C1CNCCC1C(F)(F)F (stereo not given)	-19%	·
CC(C)COc1nc2ccccc2nc1[C@H](C#N)C(=O)NC1CCCCC1	-1%	·
C=CCOC(=O)C(C(C)=O)[C@@H](NC(=O)OC)c1cccc(C(F)(F)F)c1 (stereo not given in full)	?	·
C=CCN=C1NC(c2cccc(C(F)(F)F)c2)C(C(=O)OC)=C(C)N1CC (stereo not given)	12%[14.2 µM]	·
COCOc1ccc(Br)cc1C(=O)C=Cc1ccc2c(c1)OCO2	6%[14.2 µM]	·
C[C@@H]1C[C@H]2CC(=O)N3[C@H](CC(=O)N2[C@H]1c1ccccc1)C[C@@H](C)[C@@H]3c1ccccc1	15%[14.2 µM]	·
CCCC[C@]12Cc3cc(OC)c(OC)cc3[C@H](O1)C1=C(O2)C(=O)c2ccccc2C1=O	?	·
C[C@H]1[C@@H](c2ccccc2)Oc2c(Cl)cccc2S(=O)(=O)N1Cc1ccc(F)cc1	?	·
CCN1C(=O)[C@H]2[C@H]3[C@H](O)[C@H](O)C/C(=N/OC[C@@H](O)COCc4ccco4)[C@@H]3CC[C@@H]2C1=O	34%&34%[14.2 µM]	·
C=CCN1c2ccccc2[C@]23CCC(=O)N(CC(=O)OC)C2=NC(C(=O)OC)=C(C(=O)OC)[C@H]13	18%[14.2 µM]	·
CCN(CC)CCN1C(=O)C(=O)/C(=C(/O)c2c(C)[nH]c(C(=O)OC)c2C)[C@@H]1c1ccc(OC)cc1	22%	·
C#CCCCO/N=C1\C[C@@H](O)[C@@H](O)[C@@H]2[C@@H]3C(=O)N(c4cccc(Oc5ccccc5)c4)C(=O)[C@@H]3CC[C@@H]12	?	·
N#Cc1ccc2c(c1)C[C@]1(CCCCN3C(=O)c4ccccc4C3=O)Oc3c(c(=O)oc4ccccc34)[C@H]2O1	?	·
C/C(CCN1CCc2nc(-c3ccccc3)c(-c3ccccc3)cc2C1)=N\O[C@H](C)CN1CCCCc2nc(C)c(C)cc21	25%[14.2 µM]	·
CCc1cc2c(nc1CC)CCN(CCC(C)=NO[C@@H]1O[C@H](COC(C)=O)[C@@H](OC(C)=O)[C@H](OC(C)=O)[C@@H]1OC(C)=O)C2	-19%[14.2 µM]	·

(listing goes on)
SMILES	MARV entry inh	LASV entry inh
CC(C)[C@@H]1CC[C@H](C)C[C@H]1OP(N)(=O)c1ccccc1 (stereo not given in full)	-2%	·
CC(=O)OC[C@H]1O[C@H](C#Cc2ccccc2)C=C[C@H]1OC(C)=O	21%[14.2 µM]	·
COC(=O)N[C@@H](C=Cc1ccccc1)C(C(=O)OC)=C(C)NCc1ccccc1	-22%[14.2 µM]	·
CCCOC(=O)CSC1=C(C#N)[C@H](c2ccccc2OCC)[C@H](C#N)C(=O)N1	4%	·
C#CCCCO/N=C1\C[C@@H](O)[C@@H](O)[C@@H]2[C@@H]3C(=O)N(C4CCCCC4)C(=O)[C@@H]3CC[C@@H]12	43%[14.2 µM]	·
CSc1c2c(n(CC3CCCCC3)c1CC(=O)NC1CCCCC1)CCCC2	5%	·
C#CCN1C(=O)CC[C@@]23C1=NC(C(=O)OC)=C(C(=O)OC)[C@@H]2N(C)c1ccccc13	?	·
COc1cc([C@H]2[C@@H]3C(=O)N(c4ccc(F)cc4)C(=O)[C@H]3ON2c2ccccc2)ccc1O	7%	·
CCOC(=O)N/N=C1/C[C@@H](O)[C@@H](O)[C@@H]2[C@@H]3C(=O)N(Cc4ccc5c(c4)OCO5)C(=O)[C@H]3CC[C@@H]12	-22%[14.2 µM]	·
CCc1cc(=O)oc2cc(C)c(CN3CCC[C@@H](C)C3)c(O)c12	14%	·
C[C@@H]1C=CCCO[C@]12C(=O)Nc1ccc(O)cc12	10%[14.2 µM]	·
COc1ccc(-c2nc3c(c4c2C[C@H](c2ccccc2)OC4)CN(C(=O)c2cc(I)ccc2F)CC3)c(C)c1	0%&0%&0%[14.2 µM]	·
CCCNC(=O)OC[C@@H]1O[C@H](CCO/N=C\c2ccc(C(=O)N3[C@H](c4ccc(C)cc4)[C@@H](C)CC[C@H]3C(=O)OC)cc2)C=C[C@@H]1Oc1ccc(OC)cc1	-28%[14.2 µM]	·
O=c1c(F)cn([C@H]2CCCO2)c(=O)n1Cc1ccccc1Cl	2%	·
O=C1[C@@H]2CC=C(Cl)C[C@H]2C(=O)N1CNc1ccccn1	8%	·
CC(C)=CCC/C(C)=C/CO/N=C1/C[C@@H](O)[C@@H](O)[C@@H]2[C@@H]3C(=O)N(Cc4ccc5c(c4)OCO5)C(=O)[C@H]3CC[C@H]12	-44%[14.2 µM]	·

Given field by field: 3 of the compounds above
C[C@@H]1C=CCCO[C@]12C(=O)Nc1ccc(O)cc12
  MARV entry inh = 10%[14.2 µM]
  LASV entry inh = ·

CCCNC(=O)OC[C@@H]1O[C@H](CCO/N=C\c2ccc(C(=O)N3[C@H](c4ccc(C)cc4)[C@@H](C)CC[C@H]3C(=O)OC)cc2)C=C[C@@H]1Oc1ccc(OC)cc1
  MARV entry inh = -28%[14.2 µM]
  LASV entry inh = ·

COc1ccc(-c2nc3c(c4c2C[C@H](c2ccccc2)OC4)CN(C(=O)c2cc(I)ccc2F)CC3)c(C)c1
  MARV entry inh = 0%&0%&0%[14.2 µM]
  LASV entry inh = ·

Screening data: PubChem BioAssay, National Center for Advancing Translational Sciences (NCATS)
